# Assay outcomes deposited in PubChem BioAssay by Broad Institute.
# A1 inh: inducers of caspase activity in MEF A1-2A-BIM cells, primary screen, A1 inhibitor project, cell-based, CaspaseGlo luminescence. caspase-Glo luminescence, 3 h; percent of clofoctol signal, DMSO as zero. caspase activation, % (no concentration beside the values). 21,000 tested, 0.51% active;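 active means most replicate scores above 10, or exactly half above 10 with mean activity above 10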;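 further: effector caspase 3 and 7 activity cleaving a DEVD luciferin substrate; 50 nL library stock added to about 30 µL; numbers are from one replicate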
# BJeLR viability: BJeLR cell viability loss, primary screen, luminescence, CellTiterGlo ATP; AID 2275, 2010; viability loss activity score, % (no concentration beside the values); 30,000 tested, 0.64% active; BJeLR fibroblasts viability, 48 h; HRASV12, hTERT and SV40 LT/ST transformed; in the data active means viability loss activity score above about 50%; about a fifth of its hits are not listed in these tables;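 further: higher score means fewer live cells and less ATP luminescence; stock transfer was 50 or 100 nL into about 30 µL; 0% = vehicle wells and 100% = a reference killing control; one replicate is shown; the record names a cut of 85%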
# Active calls of the source: *; nt = not tested or not shown. A portion of the library; the hit share may differ from the screen's.
# Order of values – A1 inh, BJeLR viability
> CC(=O)[C@@]1(O)CCC2C3CCC4=CC(=O)CC[C@]4(C)C3CC[C@@]21C (stereo partly specified)
    0.5, -4.4
> COc1ccc(NC(=O)Nc2cccc3c2O[C@H](CN(C)C(=O)Nc2cccc4ccccc24)[C@H](C)CN([C@H](C)CO)C3=O)cc1
    nt, -2.0
> CC1(C)CC(=O)c2cc(C#N)c(SCc3ccccc3)nc2C1
    -0.2, -2.2
> C[C@H](CO)N1C[C@H](C)[C@H](CN(C)S(C)(=O)=O)Oc2c(NS(=O)(=O)c3cccs3)cccc2C1=O
    nt, 2.8
> Clc1cccc(OCCN2CCOCC2)c1
    -0.3, 2.3
> C[C@H](CO)N1C[C@H](C)[C@H](CN(C)Cc2ccc(-c3ccccc3)cc2)Oc2c(NC(=O)Nc3ccc4c(c3)OCO4)cccc2C1=O
    nt, -3.1
> CNC[C@H]1Oc2c(NS(=O)(=O)c3c(C)noc3C)cccc2C(=O)N([C@H](C)CO)C[C@H]1C
    nt, 2.3
> Cc1noc(C)c1S(=O)(=O)Nc1cccc2c1O[C@@H](CN(C)C(=O)Nc1cccc3ccccc13)[C@@H](C)CN([C@H](C)CO)C2=O
    nt, -2.3
> C[C@H](CO)N1C[C@H](C)[C@H](CN(C)C(=O)Nc2ccc3c(c2)OCO3)Oc2ccc(NS(=O)(=O)c3cccs3)cc2C1=O
    0.6, 3.6
> O=C(Cn1nc(Cc2cccnc2)c2ccccc2c1=O)Nc1ccc(Oc2ccccc2)cc1
    1.1, 3.7
> CC1CCc2ccc(F)cc2N1S(=O)(=O)c1cccs1 (stereo unspecified)
    nt, 4.7
> O=C(c1csc2c1CCCCC2)N1CCN(c2ccccc2)CC1
    nt, -2.4
> Cc1noc(C)c1NC(=O)NC1CCCCNC1=O (stereo unspecified)
    0.4, -0.2
> CNC(=O)c1ccccc1S(=O)c1cccc2cccc(C(=O)O)c12 (stereo unspecified)
    -1.1, 1.1
> Cc1ccc(S(=O)(=O)N(C)C[C@H]2Oc3ccc(NC(=O)CCCN(C)C)cc3C(=O)N([C@H](C)CO)C[C@H]2C)cc1
    0.8, -6.0

# Part of the list above, field by field.
O=C(Cn1nc(Cc2cccnc2)c2ccccc2c1=O)Nc1ccc(Oc2ccccc2)cc1
  A1 inh: 1.1	BJeLR viability: 3.7

CC1CCc2ccc(F)cc2N1S(=O)(=O)c1cccs1 (stereo unspecified)
  A1 inh: nt	BJeLR viability: 4.7

O=C(c1csc2c1CCCCC2)N1CCN(c2ccccc2)CC1
  A1 inh: nt	BJeLR viability: -2.4

Cc1noc(C)c1NC(=O)NC1CCCCNC1=O (stereo unspecified)
  A1 inh: 0.4	BJeLR viability: -0.2

# (more compounds)
# Order of values – A1 inh, BJeLR viability
> Cc1ccccc1OCc1n[nH]c(=S)n1C
    1.4, 4.8
> CC1(C)Cc2c(c(N3CCOCC3)nc3sc(C(=O)O)cc23)CO1
    0.5, -1.8
> Cc1cc(S(=O)(=O)Nc2cc(Br)c3oc4c(c3c2)C(=O)CCC4)ccc1Cl
    nt, -7.7
> C[C@@H]1CN([C@H](C)CO)C(=O)c2cc(NS(=O)(=O)c3ccc(F)cc3)ccc2O[C@H]1CN(C)Cc1ccncc1
    0.6, 1.1
> Cc1cc(S(=O)(=O)NCC2CCN(C(=O)OC(C)(C)C)CC2)c(C)o1
    0.0, 2.9
> COc1ccc(S(=O)(=O)N(C)C[C@H]2Oc3c(NC(=O)Nc4c(C)noc4C)cccc3C(=O)N([C@H](C)CO)C[C@@H]2C)cc1
    nt, -1.2
> CCOC(=O)CSc1nc(Nc2ccccc2)c2cnc(N3CCOCC3)nc2n1
    2.1, 1.2
> CCOc1ccc(CCC(=O)O)cc1
    -0.3, -2.4
> C[C@@H]1CN([C@@H](C)CO)C(=O)c2cc(NC(=O)Nc3cccc4ccccc34)ccc2O[C@@H]1CN(C)S(=O)(=O)c1cccs1
    1.0, -1.3
> COc1ccc(S(=O)(=O)Nc2cccc3c2O[C@H](CN(C)C(=O)Nc2ccc(F)cc2)[C@H](C)CN([C@@H](C)CO)C3=O)cc1
    nt, 2.6
> C[C@H]1CN([C@@H](C)CO)C(=O)c2cccc(N(C)C)c2O[C@H]1CN(C)C(=O)NC1CCCCC1
    nt, -4.7
> CSc1ccc(Cn2cccc2C2=NC(c3ccccc3)CO2)cc1 (stereo unspecified)
    nt, -0.1
> CC(C)C(=O)Nc1cccc(-c2nc3ccccc3s2)c1
    -1.1, 7.6
> Cc1noc(C)c1NC(=O)Nc1ccc2c(c1)C(=O)N([C@H](C)CO)C[C@@H](C)[C@H](CN(C)Cc1ccncc1)O2
    0.3, 1.4
> Cc1cccc(-n2cnc3cc(C(=O)NC4CCCC4)ccc32)c1
    1.2, -3.9
> O=C(Nc1cc(F)ccc1F)c1cc(-c2ccc(F)cc2)nc2ccccc12
    -0.6, 3.7
> Cc1noc(C)c1NC(=O)Nc1ccc2c(c1)C(=O)N([C@H](C)CO)C[C@@H](C)[C@H](CN(C)S(=O)(=O)c1ccccc1)O2
    -0.1, 2.1
> C[C@H]1CN([C@@H](C)CO)C(=O)c2cccc(NC(=O)c3ccc(-c4nccs4)cc3)c2O[C@@H]1CN(C)Cc1ccc(-c2ccccc2)cc1
    nt, -0.1
> C[C@H](CO)N1C[C@H](C)[C@H](CN(C)C(=O)Nc2cccc3ccccc23)Oc2c(NC(=O)c3ccc(-c4nccs4)cc3)cccc2C1=O
    nt, 5.1
> O=C(CN1c2cccc3cccc(c23)S1(=O)=O)NCc1ccccc1
    1.1, -1.6
> COc1ccc(CN(C(=O)CN2C(=O)c3ccccc3S2(=O)=O)c2ccccc2O)cc1
    nt, -6.7
> COc1ccc(NC(=O)N(C)C[C@H]2Oc3ccc(NC(=O)CCCCCC(=O)Nc4ccccc4N)cc3C(=O)N([C@H](C)CO)C[C@@H]2C)cc1
    nt, 1.4
> COc1ccc(-c2noc(-c3cccc(F)c3)n2)cc1
    -7.6, -4.5
> C[C@@H]1CN([C@@H](C)CO)C(=O)c2cc(NC(=O)CCC(F)(F)F)ccc2O[C@@H]1CN(C)S(=O)(=O)c1ccc(F)cc1
    0.2, -0.3
> Cc1oc(-c2ccccc2Cl)nc1CSCC(=O)N1CCCC1
    nt, 33
> C[C@@H]1CN([C@H](C)CO)C(=O)c2cccc(NS(=O)(=O)c3cccs3)c2O[C@@H]1CN(C)C(=O)NC1CCCCC1
    nt, 1.2
> N=C1SCC(=O)N1c1nccs1
    -0.3, 1.3
> C[C@@H]1CN([C@H](C)CO)C(=O)c2cccc(NC(=O)c3ccncc3)c2O[C@H]1CN(C)S(=O)(=O)c1ccccc1
    nt, 3.4
> COc1ccc(NC(=O)N(C)C[C@H]2Oc3ccc(NC(=O)CCCCCC(=O)Nc4ccccc4N)cc3C(=O)N([C@@H](C)CO)C[C@@H]2C)cc1
    nt, 0.4
> CN1C(=O)/C(=C/c2ccccc2OCc2ccc(C(=O)O)cc2)NC1=S
    nt, -3.7

# (listing goes on)
Molecule	A1 inh	BJeLR viability
C[C@@H]1CN([C@H](C)CO)C(=O)c2cccc(NS(=O)(=O)c3cccs3)c2O[C@H]1CN(C)S(=O)(=O)c1ccccc1	nt	8.2
CC(C)NC(=O)N(C)C[C@@H]1Oc2ccc(NC(=O)Cc3ccccc3)cc2C(=O)N([C@@H](C)CO)C[C@@H]1C	1.6	-1.9
Cc1noc(C)c1NC(=O)Nc1ccc2c(c1)C(=O)N([C@@H](C)CO)C[C@@H](C)[C@H](CN(C)S(=O)(=O)c1ccc(F)cc1)O2	0.7	-2.3
COc1ccc(S(=O)(=O)N(C)C[C@H]2Oc3c(NC(=O)c4ccncc4)cccc3C(=O)N([C@H](C)CO)C[C@H]2C)cc1	nt	4.6
COc1ccc(S(=O)(=O)N(C)C[C@H]2Oc3ccc(NS(=O)(=O)c4ccc(Cl)cc4)cc3C(=O)N([C@@H](C)CO)C[C@H]2C)cc1	0.0	-1.0
CCCCc1nc(OCC(=O)c2ccccc2)c(C#N)c2c1COC(C)(C)C2	-0.6	-9.7
C[C@H]1CN([C@@H](C)CO)C(=O)c2cccc(NS(=O)(=O)c3ccc(Cl)cc3)c2O[C@H]1CN(C)Cc1ccncc1	nt	-2.0
C=CCNc1nc(Nc2ccc(-c3nc4ccccc4o3)cc2)nc(N2CCOCC2)n1	-0.7	-8.1
NS(=O)(=O)c1ccc(NC(=O)/C=C/c2ccccc2)cc1	0.3	0.2
COc1ccc(S(=O)(=O)N(C)C[C@H]2Oc3ccc(NC(=O)Cn4cnnn4)cc3C(=O)N([C@@H](C)CO)C[C@H]2C)cc1	-0.6	-8.3
COc1ccc(NC(=O)N(C)C[C@H]2Oc3c(NC(=O)Nc4cccc5ccccc45)cccc3C(=O)N([C@@H](C)CO)C[C@H]2C)cc1	nt	-0.3
COc1ccc(NC(=O)Nc2ccc3c(c2)C(=O)N([C@H](C)CO)C[C@H](C)[C@H](CN(C)Cc2ccc(C(=O)O)cc2)O3)cc1	0.4	-2.3
Cc1ccc(S(=O)(=O)N(C)C[C@@H]2Oc3c(NS(=O)(=O)c4cn(C)cn4)cccc3C(=O)N([C@H](C)CO)C[C@@H]2C)cc1	nt	-3.2
CC(C)NC(=O)N(C)C[C@H]1Oc2ccc(NC(=O)CCN3CCOCC3)cc2C(=O)N([C@H](C)CO)C[C@@H]1C	0.4	0.0
Cc1ccc(S(=O)(=O)Nc2cccc3c2O[C@H](CN(C)S(=O)(=O)c2ccc(C)cc2)[C@H](C)CN([C@@H](C)CO)C3=O)cc1	nt	-0.3
C[C@H](CO)N1C[C@H](C)[C@@H](CN(C)S(=O)(=O)c2ccccc2)Oc2ccc(NC(=O)C3CCCCC3)cc2C1=O	-0.5	-1.7
Cc1cccc(N2C(=O)CC(Sc3nccc(C)n3)C2=O)c1 (stereo unspecified)	-0.1	-4.3
O=c1c(O)c(-c2ccccc2)oc2cc(O)cc(O)c12	-2.1	-14
COc1ccc(NC(=O)Nc2ccc3c(c2)C(=O)N([C@@H](C)CO)C[C@H](C)[C@@H](CN(C)Cc2ccc(C(=O)O)cc2)O3)cc1	-0.3	-2.3
C[C@@H]1O[C@@H](OC[C@H]2O[C@@H](OCc3ccccc3)[C@H](O)[C@@H](O)[C@@H]2O)[C@H](O)[C@H](O)[C@H]1O	0.2	1.8
CC(C)NC(=O)N(C)C[C@@H]1Oc2ccc(NS(=O)(=O)c3ccc(Cl)cc3)cc2C(=O)N([C@H](C)CO)C[C@@H]1C	0.6	0.5
CC(=O)N1c2ccccc2N=C(c2ccc(C)cc2)CC1c1ccccc1 (stereo unspecified)	1.1	-5.4
C[C@H]1CN([C@@H](C)CO)C(=O)c2cccc(NS(=O)(=O)c3cccs3)c2O[C@H]1CN(C)CC1CC1	nt	-0.5
C[C@@H]1CN([C@@H](C)CO)C(=O)c2cccc(NC(=O)c3nc4ccccc4s3)c2O[C@H]1CN(C)Cc1ccc(C(F)(F)F)cc1	nt	-2.9
CC(N=Cc1c(O)ccc2ccccc12)C12CC3CC(CC(C3)C1)C2 (stereo unspecified)	-0.7	-4.4
C[C@H](CO)N1C[C@H](C)[C@@H](CN(C)Cc2ccc(Cl)c(Cl)c2)Oc2ccc(NC(=O)C3CC3)cc2C1=O	-0.6	2.3
CSc1nsc(SC)c1C(=O)NN1CCOCC1	0.4	-12
C[C@@H]1CN([C@@H](C)CO)C(=O)c2cccc(NC(=O)NC3CCCCC3)c2O[C@@H]1CN(C)S(C)(=O)=O	nt	1.5
C[C@@H]1CN([C@@H](C)CO)C(=O)c2cc(NC(=O)c3ccncc3)ccc2O[C@H]1CN(C)C(=O)Nc1ccc(C(F)(F)F)cc1	0.8	2.6
CCOC(=O)c1cc(-c2ccccc2)sc1NC(=O)CCN1CCN(CC)CC1	12*	51*
Cc1cc(C(=O)Nc2cccc3c2O[C@@H](CN(C)Cc2ccc(Oc4ccccc4)cc2)[C@H](C)CN([C@@H](C)CO)C3=O)n(C)n1	nt	7.7
C[C@@H]1CN([C@H](C)CO)C(=O)c2cc(NC(=O)NC3CCCCC3)ccc2O[C@H]1CN(C)C(=O)Nc1ccccc1	0.3	1.9
C[C@@H]1CN([C@H](C)CO)C(=O)c2cc(NS(=O)(=O)c3ccc(Cl)cc3)ccc2O[C@@H]1CN(C)C(=O)Nc1ccccc1	0.4	-1.1
Cc1cc(C(=O)Nc2cccc3c2O[C@@H](CN(C)S(C)(=O)=O)[C@@H](C)CN([C@@H](C)CO)C3=O)n(C)n1	nt	0.2
N#CC(C(N)=S)=C1CCCC1	0.1	-11
COc1ccccc1NC(=O)CSc1nc2c(oc3ccccc32)c(=O)n1Cc1ccc(F)cc1	-0.3	2.2
COc1ccc(S(=O)(=O)Nc2cccc3c2O[C@@H](CN(C)S(=O)(=O)c2c(C)noc2C)[C@H](C)CN([C@H](C)CO)C3=O)cc1	nt	-1.6
C[C@@H]1CN([C@H](C)CO)C(=O)c2cc(NS(=O)(=O)c3ccc(Cl)cc3)ccc2O[C@@H]1CN(C)S(=O)(=O)c1ccc(Cl)cc1	0.5	2.8
